Sfp PPTase inh – qHTS Assay for Inhibitors of Bacillus subtilis Sfp phosphopantetheinyl transferase (PPTase) | 4'-phosphopantetheinyl transferase ffp (Bacillus subtilis), Q9F4F7 | Biochemical Sfp PPTase activity, qHTS | Potency, µM, for the others: max response, negative = inhibition, usual class: inhibitors | 310,000 compounds, 3.5% hits; active = well fitted inhibition curve with a large enough effect; inconclusive = small, poorly fitted or top-dose-only effect, or another doubt; inactive = no such curve, though single readings can be large or run the other way;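 note: the enzyme is Sfp with the accession as filed and its product quenches rhodamine fluorescence; potency is the fitted concentration of half-maximal effect; 0% = enzyme reaction without inhibitor and -100% = no enzyme wells; top concentration of the series not given in the record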
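Fluorescence-quenching assay with 15 nM Sfp, 5 uM rhodamine-CoA and 12.5 uM BHQ-2-labelled ybbR peptide in pH 7.6 Hepes/MgCl2 buffer. Enzyme was pre-incubated with compound for 15 min at room temperature. Rate was taken from the 30-min fluorescence change (525/598 nm).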
PINK1 expr mod – A Quantitative High throughput Screen to Identify Chemical Modulators of PINK1 Expression; PINK1 immunofluorescence, high-content cytometry, 24 h; Potency, µM (highest dose often 76.6 µM), for inactives: at the highest dose activation (PINK1 increase), usual class: activators; 410,000 compounds, 0.2% hits; active = well fitted activation curve with a large enough effect; inconclusive = small, poorly fitted or top-dose-only effect; inactive = flat fitted curve, though single readings scatter; cell line not stated here;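 note: potency is the fitted concentration of half-maximal effect; % of control where 0% means no effect; nearly all actives have a fitted effect of over 65% in size; a mitochondrial uncoupler was the plate control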
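Stable cell line, 250 cells/well, 12 h attachment; compounds pinned at 5 concentrations, 24 h; CCCP control. Fixed with nuclear dye, primary antibodies 12 h at 10 degrees C, secondary plus cell stain; laser-scanning cytometer read.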
D2 ag – Beta-Arrestin HTS for Positive Allosteric Modulators of the Human D2 Dopamine Receptor: Agonists | 360,000 compounds, 0.084% hits | DiscoveRx PathHunter D2 beta-arrestin, luminescence, 90 min; 100% = 57 uM dopamine signal | activation, % (concentration not given with the values) | D(2) dopamine receptor (Homo sapiens), P14416; in the data active = activation above about 40%; inconclusive = about 15% to 40%; inactive = below about 15%; note: the text of the record calls up to 30% inactive
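Agonist mode: compounds alone added to overnight-plated D2 PathHunter cells for 90 min at 37 C, with 57 uM final dopamine (EC100) defining full response. Beta-arrestin recruitment detected by chemiluminescent reagent, read after 1 h at ambient temperature.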
Six1-Eya2 blk – qHTS Assay for Inhibitors of the Six1/Eya2 Interaction. activity change, % (no concentration beside the values). Homeobox protein SIX1 (Homo sapiens) + Protein phosphatase EYA2 (Homo sapiens), …. 360,000 compounds, 0.56% hits. AlphaScreen GST-Six1/His-Eya2 binding, biochemical; active compounds read low; control for the full effect not named in the record. AID 651725, 2012; in the data active = activity change below about -65%; inconclusive = about -30% to -65%; inactive = above about -30%; note: % is set by controls: 0 for no effect and ±100 for the full control effect
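GST-Six1 + His-Eya2 (5X stock: 250/500 nM); Tris pH 8.0, 300 mM NaCl, 0.05% BSA, 0.02% Tween 20; GSH donor/Ni acceptor beads; 1 h 37 °C dark; AlphaScreen readout.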
TRPV1 PAM – HTS Assay for Compounds that Act as Potentiators of the Vanilloid Receptor 1 | Transient receptor potential cation channel subfamily V member 1 (Homo sapiens), Q8NER1 | TRPV1-expressing cells, Fluo-8 calcium influx, capsaicin EC20 potentiation; host cell line not named in the record; control for the full effect not named in the record | potentiation, % at 8.33 µM | 320,000 compounds, 0.02% hits; active means potentiation above 80%; inconclusive means 30% to 80%; inactive means below 30%; note: 0% is about no effect
Target sequence (Q8NER1 whole entry, looked up): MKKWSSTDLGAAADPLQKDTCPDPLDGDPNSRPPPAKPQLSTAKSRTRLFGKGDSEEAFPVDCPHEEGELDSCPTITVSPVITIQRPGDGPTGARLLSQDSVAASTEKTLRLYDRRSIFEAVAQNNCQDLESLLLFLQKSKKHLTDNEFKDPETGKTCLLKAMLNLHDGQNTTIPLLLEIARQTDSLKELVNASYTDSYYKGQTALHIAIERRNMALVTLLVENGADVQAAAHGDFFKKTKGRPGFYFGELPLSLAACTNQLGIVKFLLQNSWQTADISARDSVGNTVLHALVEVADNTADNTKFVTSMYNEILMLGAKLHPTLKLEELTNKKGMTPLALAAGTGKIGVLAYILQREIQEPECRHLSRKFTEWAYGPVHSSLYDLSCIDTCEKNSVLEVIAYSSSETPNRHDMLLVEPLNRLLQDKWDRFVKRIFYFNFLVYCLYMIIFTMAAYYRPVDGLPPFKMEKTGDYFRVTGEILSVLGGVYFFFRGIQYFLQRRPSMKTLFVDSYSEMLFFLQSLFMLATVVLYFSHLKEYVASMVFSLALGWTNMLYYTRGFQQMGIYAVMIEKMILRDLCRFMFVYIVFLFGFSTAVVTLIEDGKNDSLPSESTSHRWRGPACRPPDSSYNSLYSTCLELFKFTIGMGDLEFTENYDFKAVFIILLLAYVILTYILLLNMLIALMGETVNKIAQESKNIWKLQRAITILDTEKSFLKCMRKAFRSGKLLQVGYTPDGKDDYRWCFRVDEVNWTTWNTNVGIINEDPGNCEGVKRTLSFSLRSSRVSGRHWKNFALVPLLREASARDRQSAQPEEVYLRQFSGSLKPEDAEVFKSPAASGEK
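Cells expressing TRPV1 were dye-loaded with Fluo-8 and read kinetically: 10 s baseline, 3 min after compound (agonist portion), then 2 min after EC20 capsaicin (allosteric enhancer portion). Calcium-bound dye fluorescence at 480/520 nm.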
D2 PAM – Beta-Arrestin HTS for Positive Allosteric Modulators of the Human D2 Dopamine Receptor: Potentiators. 360,000 compounds, 0.23% hits. potentiation, % (concentration not given with the values). D(2) dopamine receptor (Homo sapiens), P14416. AID 624464, 2012. DiscoveRx D2 beta-arrestin cells, luminescence, 90 min; 100% = 57 uM dopamine signal; active = potentiation of 50% or more; inconclusive = 30% to 50%; inactive = 30% or less;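 note: tested on top of an EC20 dose of dopamine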
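D2 cells co-treated with compound plus 50 nM dopamine (EC20) for 90 min at 37 deg C to detect potentiation. Beta-arrestin recruitment was read as enzyme-fragment luminescence after 1 h at ambient temperature. Full response was set by 57 uM dopamine.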
CtBP-E1A blk – qHTS Assay for Inhibitors of the CtBP/E1A Interaction. 340,000 compounds, 0.49% hits. activity change, % (test concentration not listed). AID 651724, 2012. AlphaScreen GST-E1A/His-CtBP binding, 1536-well; active compounds read low; control for the full effect not named in the record; in the data active means activity change below about -65%; inconclusive means about -30% to -65%; inactive means above about -30%; note: % is set by controls: 0 for no effect and ±100 for the full control effect
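In 5 uL wells, 23 nL compound meets equimolar GST-E1A and His-CtBP (5X stock 125 nM each) for 2 h, 37 °C. Beads (5X, 50 ug/mL) then 1 h, 37 °C, dark.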
Starred values were filed as active, the others as inactive; ? = inconclusive; . = no result given; [ ] = another dose, or the depositor's remark.

Start of the listing, in advance:
SMILES	Sfp PPTase inh	PINK1 expr mod	D2 ag	Six1-Eya2 blk	TRPV1 PAM	D2 PAM	CtBP-E1A blk
C[C@@H]1CC[C@@]23COC(=O)C2=CCC[C@@H]3[C@@]1(C)CC/C(=C/CO)CO	.	0.8%	-5.4	-11	-10	-41	1
CC(=O)Nc1ccc(NC(=O)CSc2ccc3nnc(-c4ccccn4)n3n2)cc1	9%	-0.5%	1.7	?	-8	1	?
O=C(Nc1cccnc1)OC1CCCCC1	-1%	1.4%	-6.4	11	14	13	3
c1ccc2[nH]c(SCc3cn4cccnc4n3)nc2c1	-13%	-0.3%	-1.7	0	-2	1	11

The list itself, previewed entries included:
SMILES	Sfp PPTase inh	PINK1 expr mod	D2 ag	Six1-Eya2 blk	TRPV1 PAM	D2 PAM	CtBP-E1A blk
C[C@@H]1CC[C@@]23COC(=O)C2=CCC[C@@H]3[C@@]1(C)CC/C(=C/CO)CO	.	0.8%	-5.4	-11	-10	-41	1
CC(=O)Nc1ccc(NC(=O)CSc2ccc3nnc(-c4ccccn4)n3n2)cc1	9%	-0.5%	1.7	?	-8	1	?
O=C(Nc1cccnc1)OC1CCCCC1	-1%	1.4%	-6.4	11	14	13	3
c1ccc2[nH]c(SCc3cn4cccnc4n3)nc2c1	-13%	-0.3%	-1.7	0	-2	1	11
Cc1ccc(NC(=O)CN(C)C(=O)CSc2nc(C)cc(C)n2)cc1	.	-1.7%	-0.9	0	-14	-11	10
CCCCSc1[nH]c(=O)c(C(=O)OCC)cc1C#N	-5%	-1.7%	-2.5	3	-2	0	4
COc1ccc(OC)c(CN2CCN(CCCc3ccccc3)C(CCO)C2)c1 (stereo not given)	3%	0.0%	-1.9	0	-18	-4	-15
c1ccc2c(c1)CCCn1nnnc1-2	8%	-3.3%	-2.9	-1	-23	15	-1
Cc1ccc(NC(=O)CCCCCN2C(=O)[C@@H]3Cc4ccccc4CN3C2=O)cc1	5%	-0.2%	?	0	16	-3	0
CC1CCN(C(=O)c2ccc(S(=O)(=O)Cc3ccccc3F)c([N+](=O)[O-])c2)CC1	-10%	-2.5%	4.8	6	-2	14	-7
CCN(CC)C(=O)CSC1c2ccccc2C(=O)N1c1ccccc1 (stereo not given)	-6%	5.2%[38.3 µM]	-3.1	3	.	-4	8
COc1ccc2cc(C(=O)Nc3ccc(Cl)cc3)sc(=O)c2c1OC	-1%	2.2%	-5.7	4	-14	-15	-4
CCOc1ccc(C(=O)CCC(=O)NCC(=O)Nc2c(C)cccc2C)cc1	.	0.7%	6.5	1	9	-3	5
CC(C)NC(=O)NC(=O)COC(=O)/C=C/c1ccccc1[N+](=O)[O-]	14%	0.8%	5.5	4	25	1	.
CCCCOc1ccc(C(=O)Nn2c(-c3cccs3)nc3ccccc3c2=O)cc1	6%	-0.1%	-1.4	6	10	-2	4
COC(=O)c1sc(SC)c(S(=O)(=O)C(C)C)c1N	1%	-0.8%	-5.6	1	2	-4	.
COc1ccc(CC(=O)N/N=C(\C)c2cccs2)cc1	5%	3.8%	2.0	0	10	-11	-3
O=C(COc1ccccc1)Nc1ccc(C(=O)N2CCCC2)cc1	23%	-0.3%	2.6	-4	10	1	-7
CC(=O)c1ccc(N2CCN(C(=O)c3ccc4nc[nH]c4c3)CC2)cc1	-2%	-0.2%	0.0	-4	9	-18	1
COc1ccc(Cc2nc(-c3cccs3)no2)cc1	-5%	1.9%	2.0	26	4	0	38
O=C1COc2ccc(C(=O)COC(=O)Cc3ccsc3)cc2N1	18%	-0.7%	2.1	-13	0	-1	-14
O=C(NC1CCN(C(=O)Nc2cccc(F)c2)CC1)C1CCCCC1	8%	3.8%	-2.1	-11	-8	7	9
CN(Cc1ncc[nH]1)C(=O)CC1C(=O)NCCN1Cc1c(F)cccc1Cl (stereo not given)	?	-0.8%	-4.2	0	1	-2	-7
CCO[C@@H]1OC(C(=O)N2CCN(C)CC2)=C[C@H](c2csc3ccccc23)[C@H]1CCCO	6%	0.5%	-3.7	5	-12	-23	-2
Cc1ccc(S(=O)(=O)N2CCN(C(=O)COc3ccc(-c4nnco4)cc3)CC2)cc1	11%	-0.5%	3.5	-1	-1	-13	-5
O=C(N/N=C/c1cccc([N+](=O)[O-])c1)C1CC(=O)N(c2ccc(F)cc2)C1 (stereo not given)	13%	1.0%	-5.3	-4	3	-10	-2
CCC1CCCCN1S(=O)(=O)c1ccc(C(=O)Nc2nnc(C3CC3)o2)cc1 (stereo not given)	14%	3.6%	2.7	-7	0	-4	-22
O=C(NC1=NCCS1)c1ccc(Br)s1	1%	-4.0%[38.3 µM]	-2.8	2	-8	-7	9
Cc1ccc(NC(=O)c2cc(S(=O)(=O)N3CCCC3)cn2C)cc1	-3%	-0.4%	-2.9	-3	4	-7	3
O=C(c1nc2ccccc2s1)N1CCSCC1	11%	1.7%	-1.9	1	-13	0	1
CC(NC(=O)COc1ccccc1)C(=O)N1CCN(c2ccccc2)CC1 (stereo not given)	.	2.8%	-7.2	1	-3	-14	-4
Cc1cccc(N(O)C(=O)Nc2cccc(Cl)c2)c1	-15%	6.0%	8.7	9	3	21	10
COc1ccc(C(C(=O)NC(C)(C)C)N(CCc2ccccc2)C(=O)CCC(=O)Nc2cc(C)on2)cc1 (stereo not given)	26%	-2.2%	-7.2	-18	-2	1	-9
COc1nonc1NCn1nc(C)cc1C	8%	-0.2%	-2.0	7	6	5	2
Cc1ccc(C)c(OCCC(=O)OCC(=O)Nc2cccc(S(=O)(=O)N3CCCC3)c2)c1	.	0.3%	-0.7	-13	14	-9	11
OCCC1CN(Cc2ccc(Oc3ncccn3)cc2)CCN1Cc1ccc(F)c(F)c1 (stereo not given)	2%	-1.3%	-1.1	-5	10	-23	0
O=C(COc1coc(CN2CCN(c3ccccc3)CC2)cc1=O)N1CCc2ccccc21	.	-2.6%	3.0	2	13	-3	-17
Nc1nnc(SCC(=O)Nc2cccc(S(=O)(=O)N3CCCCC3)c2)s1	.	0.8%	3.3	-10	2	-2	-29
CCOc1ccc(CCNC(=O)Cn2ccc3ccccc3c2=O)cc1OCC	11%	5.8%	-3.5	-2	1	-6	-11
COc1cc(C2NC(=O)NC(C)=C2C(=O)OC(C)C)ccc1OC(=O)c1ccco1 (stereo not given)	-5%	.	-1.8	-1	28	-7	5
CC1(C)CC(=O)N(c2cc(Cl)ccc2Cl)C(=O)C1	24%	-0.4%	6.0	5	-3	-3	0
C/C(=N/NS(=O)(=O)c1cc(C)ccc1C)c1ccc2c(c1)OCO2	3%	-1.0%	0.6	1	-7	8	2
O=C(Nc1ncn[nH]1)c1cc(S(=O)(=O)Nc2cccc(C(F)(F)F)c2)ccc1Cl	-1%	2.2%	3.3	-8	12	4	-4
Cn1cc(S(=O)(=O)CC(=O)N2CCc3ccccc32)c2ccccc21	7%	1.1%	-6.0	-1	-7	-3	0
Cc1cccc(-n2cnc(C(=O)Nc3cccnc3)c2)n1	11%	1.5%	-2.2	26	3	-4	3

Random excerpt: four records from the list, in no set order.
SMILES	Sfp PPTase inh	PINK1 expr mod	D2 ag	Six1-Eya2 blk	TRPV1 PAM	D2 PAM	CtBP-E1A blk
Nc1nnc(SCC(=O)Nc2cccc(S(=O)(=O)N3CCCCC3)c2)s1	.	0.8%	3.3	-10	2	-2	-29
COc1ccc(C(C(=O)NC(C)(C)C)N(CCc2ccccc2)C(=O)CCC(=O)Nc2cc(C)on2)cc1 (stereo not given)	26%	-2.2%	-7.2	-18	-2	1	-9
Cc1cccc(-n2cnc(C(=O)Nc3cccnc3)c2)n1	11%	1.5%	-2.2	26	3	-4	3
OCCC1CN(Cc2ccc(Oc3ncccn3)cc2)CCN1Cc1ccc(F)c(F)c1 (stereo not given)	2%	-1.3%	-1.1	-5	10	-23	0

More results.
SMILES	Sfp PPTase inh	PINK1 expr mod	D2 ag	Six1-Eya2 blk	TRPV1 PAM	D2 PAM	CtBP-E1A blk
COc1cccc(-n2c(Cc3cc(=O)[nH]c(=O)[nH]3)nnc2SCC(=O)NC2CCCC2)c1	25%	-2.8%	-2.6	0	.	-3	2
COC(=O)Nc1sc2c(c1C(=O)N1CCOCC1)CCC(C)C2 (stereo not given)	?	-1.5%[38.3 µM]	-2.7	2	?	-6	2
c1ccc(CSc2nccc(-c3ccco3)n2)cc1	.	11%	-2.8	25	.	-11	39
Cc1cc(-c2csc3ncnc(N4CCN(C)CC4)c23)cc(C)c1C	6%	0.6%	-1.6	-3	-6	-12	-18
Cc1csc(NC(=O)CS(=O)(=O)Cc2ccccc2)n1	-5%	2.0%	0.9	-4	14	-6	-4
Nc1nc(SCC(=O)Nc2ccccc2)[nH]c(=O)c1NC(=O)c1cccs1	3%	1.0%	-4.0	2	12	-4	-2
O=C(O)c1ccc(CN2C(=O)c3ccccc3S2(=O)=O)cc1	18%	-2.0%	-4.2	6	20	4	7
Cc1cc2ccccc2n1CCNC(=O)C(C)(C)C	19%	1.6%	-5.5	2	-2	-7	3
Cc1nc2ccccc2c2c1CC(C(C)(Cl)Br)O2 (stereo not given)	1%	0.9%	-0.3	0	-15	-2	7
Cn1c(C(=O)OCC(=O)NCc2ccc(F)cc2)cc2occc21	.	6.7%	3.6	-1	-28	4	6
CCOc1ccccc1OCC(=O)NN1Cc2ccccc2C1=N	13%	-0.2%	-4.3	-14	4	-27	10
CCCCNC(=O)CNC(=S)N(Cc1ccccc1)Cc1cccnc1	7%	-0.8%	-5.2	9	11	-14	4
CCOc1ccc(NC(=O)CSc2nc(=O)n(CCCN3CCOCC3)c3c2CCC3)cc1	.	-1.6%	-1.4	-1	-2	-10	2
COc1ccc(NC(=O)C(CC(=O)O)Cc2ccc(Cl)cc2)cc1 (stereo not given)	12%	-1.4%	5.5	8	28	1	.

High-throughput results (PubChem)
